From PubChem BioAssay
GIRK2 act: opens human GIRK2 potassium channels; P48051; HEK293-GIRK2 thallium flux, Thallos fluorescence; calls only for hits at 25 µM; 63,000 tested, 0.05% active; AID 1259325;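 active means among the strongest 0.2% of first-round signals and kept after retests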;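 further: first round at about 10 µM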
Target sequence (P48051 whole entry, looked up): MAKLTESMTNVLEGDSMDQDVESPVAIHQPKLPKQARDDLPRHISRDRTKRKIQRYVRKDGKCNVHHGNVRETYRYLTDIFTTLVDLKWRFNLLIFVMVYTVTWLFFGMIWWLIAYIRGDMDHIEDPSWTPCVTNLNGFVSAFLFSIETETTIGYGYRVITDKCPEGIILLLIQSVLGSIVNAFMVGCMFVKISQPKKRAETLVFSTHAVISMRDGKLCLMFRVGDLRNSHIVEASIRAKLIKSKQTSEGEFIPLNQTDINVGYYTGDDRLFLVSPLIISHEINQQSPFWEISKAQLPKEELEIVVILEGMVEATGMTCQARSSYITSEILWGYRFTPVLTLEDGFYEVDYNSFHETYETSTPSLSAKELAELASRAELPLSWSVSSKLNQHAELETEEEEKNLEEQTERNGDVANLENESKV
Calls only; i = inactive. This is a subset. The share of hits here may be higher or lower than overall.

SMILES	GIRK2 act
COc1cc(OC)cc(-c2noc(-c3c[nH]c4ccc(C)cc4c3=O)n2)c1	i
O=C(CCCc1ccccc1)N1CCN(CC(O)C2CC2)CC1 (centres undefined)	i
COc1ccc(-n2cc(C(=O)NCc3ccc(OC)cc3OC)nn2)cc1	i
C=CCn1c(SCC(=O)Nc2cccc([N+](=O)[O-])c2)nc2sc(C)cc2c1=O	i
CCCNC(=O)c1sccc1S(=O)(=O)N(C)c1ccc(OCC)cc1	i
CC1CC2=C(CC3C(C)(CCC4(O)C(C)(C)C=CC(=O)C34C)O2)C(=O)O1 (centres undefined)	i
COc1ccccc1-n1nnc(C(=O)OCc2cccc(F)c2)c1C	i
CCOc1ccc(C(=O)N2CCN(c3ncnc4c3nnn4-c3cccc(F)c3)CC2)cc1OCC	i
COc1ccc(-c2coc3c4c(ccc3c2=O)OCN(Cc2cccs2)C4)cc1	i
CCOc1ccc(N2C(=O)/C(=C/c3cccnc3)SC2=S)cc1	i
COc1cccc(-c2cn3c(C(=O)N4CCN(c5ccccc5OC)CC4)csc3n2)c1	i
CC1CCCCN1C(=O)Cn1c(=O)n(C2CCCCC2)c(=O)c2ccccc21 (centres undefined)	i
Cc1ccc(S(=O)(=O)N2CCCCC2CCNS(=O)(=O)C2CC2)cc1 (centres undefined)	i
Cc1cc(C)cc(NC(=O)c2c(N)n(/N=C\c3ccccn3)c3nc4ccccc4nc23)c1	i
Cc1ccc(N2CCCS2(=O)=O)cc1NC(=O)CSc1ccc(F)cc1	i

Four of the compounds above, as labelled records:
CC1CC2=C(CC3C(C)(CCC4(O)C(C)(C)C=CC(=O)C34C)O2)C(=O)O1 (centres undefined)
  GIRK2 act: i
Cc1cc(C)cc(NC(=O)c2c(N)n(/N=C\c3ccccn3)c3nc4ccccc4nc23)c1
  GIRK2 act: i
COc1ccc(-c2coc3c4c(ccc3c2=O)OCN(Cc2cccs2)C4)cc1
  GIRK2 act: i
CCOc1ccc(N2C(=O)/C(=C/c3cccnc3)SC2=S)cc1
  GIRK2 act: i

Other structures follow.
SMILES	GIRK2 act
N#Cc1cccc(C(=O)N2CC(c3nc(-c4ccc[nH]c4=O)no3)C2)c1	i
C/C=C(\C)C(=O)O[C@H]1C=C(CO)C(=O)[C@H](OC(C)=O)[C@H]1C(C)C	i
CCc1nc2sc(C(c3ccc(F)cc3)N3CCCCC3)c(O)n2n1 (centres undefined)	i
Cc1cc(C(=O)N2CCN(Cc3nnnn3-c3ccccc3)CC2)no1	i
Cc1ccc(-c2nnc3sc(C4=Cc5ccccc5OC=C4)nn23)cc1	i
Cc1cc(=O)n(CCNC(=O)Cc2c[nH]c3ccccc23)cn1	i
CC(NC(=O)C(=O)NCC1CCN(C(=O)c2ccoc2)CC1)c1ccccc1 (centres undefined)	i
O=C(CN1CCC(c2nnc(C(F)(F)F)o2)CC1)Nc1cccc(Cl)c1	i
CCC(CC)C(=O)NCCN1CCn2cc(OCc3ccc(F)cc3)c(=O)cc2C1=O	i
Cn1cnnc1SCc1cc(=O)c(OCC(=O)NCc2ccco2)co1	i
Cc1ccccc1C(=O)N1CCN(c2ccc(-n3ccnc3)nn2)CC1	i
COCCc1nnc(NC(=O)c2cccc(C#N)c2)o1	i
COc1ccc(-c2c(C)nn3c(-n4nc(C)cc4C)cc(C)nc23)cc1OC	i
CC(=O)N1CCc2c(sc(NC(=O)c3cccc([N+](=O)[O-])c3)c2-c2nc3ccccc3s2)C1	i
O=C(c1ccoc1)N1CCC(CNS(=O)(=O)c2ccc(Br)s2)CC1	i
COc1ccccc1-n1nnc(C(=O)Nc2ccccc2C)c1C	i
COc1ccccc1N1CC(C)Cn2c1nc1c2c(=O)n(CC(C)=O)c(=O)n1C (centres undefined)	i
Cc1cc(C)c2c(n1)sc1c(=O)n(CC(=O)Nc3ccc(C(C)C)cc3)c(C)nc12	i
CCOC(=O)N1CCN(C(=O)c2cnn3c2OCCC3)CC1	i
O=C(Nc1ccc2c(c1)OCCO2)c1csc(-c2cnccn2)n1	i
CCOC(=O)c1ccc(NC(=O)/C(C#N)=C2\SC(Cc3ccccc3)C(=O)N2c2ccccc2)cc1 (centres undefined)	i
COc1ccc(Cn2c(=O)c3oc4ccccc4c3n(CC(=O)Nc3c(C)cc(C)cc3C)c2=O)cc1	i
O=C1CCCC(=O)N1CCS(=O)(=O)N1CCN(c2nc3c(C(F)(F)F)cccc3s2)CC1	i
COc1cccc(CNC(=O)Cn2c(N3CCCC3)nc(C)cc2=O)c1	i
COC(=O)N1CCc2ccccc2C1C(=O)NCc1ccncc1 (centres undefined)	i
O=C(Nc1nc2c(s1)CN(C(=O)c1ccc(Cl)s1)CC2)c1ccco1	i
CNC(=O)C1CCC(Cn2c(=O)c3sccc3n(Cc3cccc(OC)c3)c2=O)CC1 (centres undefined)	i
O=C(NCc1ccc2c(c1)OCO2)C(=O)Nc1ccc(C(F)(F)F)cc1	i
Cc1nc2ccccc2n(CC(=O)Nc2ccccc2Br)c1=O	i
COc1ccccc1NC(=O)c1ccccc1Br	i
CC(C)Sc1ccc(CC(=O)Nc2ccc(CC(=O)NCc3cccs3)cc2)cc1	i
O=C(Cn1ccn2nc(-c3ccc(Cl)cc3)cc2c1=O)N1CCCCCC1	i
Cc1c(C(N)=O)nnn1-c1nc(-c2ccccc2)cs1	i
COc1ccc(-n2c(C)cn3c4c(=O)n(Cc5ccc(C)cc5)c(=O)n(C)c4nc23)c(OC)c1	i
CCOC(=O)C1CCN(S(=O)(=O)CCNC(=O)c2ccc3c(c2)OCO3)CC1	i
O=S1CCN(Cc2ccc(-c3ccc4ncnc(Nc5ccc(OCc6ccccc6)c(Cl)c5)c4c3)o2)CC1	i
CC(C)c1[nH]nc2c1N=C(c1ccccc1Cl)c1cc([N+](=O)[O-])ccc1N2	i
COc1ccc(C)cc1NC(=O)N1CCN(c2cc(OC(C)C)nc(C)n2)CC1	i
COc1ccc(-c2cc3c(=O)n(CC(=O)Nc4cccc(C(C)=O)c4)ccn3n2)cc1	i
O=C(CSC1=NNC2C3CC(c4ccccc4)NN3C=CN12)Nc1cccc(Br)c1 (centres undefined)	i
O=C(Nc1nc(CCC(=O)N2CCc3ccccc3C2)cs1)c1ccc[nH]c1=O	i
CCc1oc2ccccc2c1C(=O)c1cc(Br)c(O)c(Br)c1	i
COc1ccc(OCc2nc(Cc3nc(-c4cccc(C)c4)oc3C)no2)cc1	i
Cn1nc(C(=O)N(Cc2ccccc2)Cc2ccccc2)ccc1=O	i
O=Cc1cccnc1N1CCOCC1	i
COc1ccc(OCc2noc(CNC(=O)C(C)(C)Oc3ccc(Cl)cc3)n2)cc1	i
Cc1ccc(Cl)cc1N1CCN(CCCn2c(C)cn3c4c(=O)[nH]c(=O)n(C)c4nc23)CC1	i
CC(C)Oc1ccc(C(=O)N2CCC(c3nnc(C4CC4)o3)CC2)cc1	i
COC(=O)c1cc(Nc2cc(OC)ccc2OC)c2cc(Cl)ccc2n1	i
COc1ccc(-c2c[nH]c(=S)n2-c2ccc(OC(F)(F)F)cc2)cc1	i
O=C(CCn1cnc2c([nH]c3ccc(F)cc32)c1=O)N1CCN(c2ncccn2)CC1	i
Cc1nn(C)c(C)c1CCC(=O)N1CCN(S(C)(=O)=O)CC1	i
CC(C)NC(=O)N1CC(c2nc(-c3ncccn3)no2)C1	i
COC(=O)c1ccccc1NC(=O)Cn1nc2c(Oc3cccc(OC)c3)nccn2c1=O	i
COc1ccc2cccc(NC(=O)c3cc(-c4cccs4)[nH]n3)c2n1	i
COc1ccc2sc(N(Cc3ccncc3)C(=O)c3ccc(S(=O)(=O)C(C)C)cc3)nc2c1	i
COc1ccccc1C1(C(=O)N(Cc2ccoc2)Cc2cccs2)CCOCC1	i
CCCCn1c(C(=O)Nc2ccc(OC)cc2)cc2c(=O)n(C)c(=O)n(C)c21	i
CCOc1cc(C2C(=C(O)c3ccc(Cl)cc3)C(=O)C(=O)N2c2nccs2)ccc1O (centres undefined)	i
COc1ccc(OC)c(-c2cc(C(=O)NCCc3csc4nc(-c5cccs5)nn34)n(C)n2)c1	i
Remaining list, next part
SMILES	GIRK2 act
Cc1cc(C(=O)NCc2sc(-c3cccs3)nc2C)c(C)o1	i
COc1ccccc1NC(=O)c1nnn(-c2ccccc2OC)c1C	i
Cc1c(Cl)cccc1NC(=O)Cn1nc2c(SCc3ccccc3)nccn2c1=O	i
Cc1c(C(=O)NCc2ccco2)oc2c1/C(=N\O)CCC2	i
O=C(/C=C/c1cccs1)c1ccc(O)cc1	i
O=C1C(=O)N(c2nccs2)C(c2ccccc2Cl)C1=C(O)c1ccc(Cl)cc1 (centres undefined)	i
CS(=O)(=O)N1CCC(C(=O)N2CCN(C(=O)C3CC3c3ccc4c(c3)OCO4)CC2)CC1 (centres undefined)	i
Cc1ccc(C23CC4CC(CC(C(=O)N/N=C\c5ccco5)(C4)C2)C3)cc1	i
Cc1csc(SCC2CCN(C(=O)c3ccsc3)CC2)n1	i
CSc1cccc(-n2ccc(=O)c(-c3nc(-c4cccc(Cl)c4)no3)n2)c1	i
Cc1cc(N2C(=O)C(=O)C(=C(O)c3ccc(F)cc3)C2c2cccs2)no1 (centres undefined)	i
Cn1cccc1C(CNC(=O)C(=O)NCCc1ccccc1)N1CCCC1 (centres undefined)	i
O=C(CN1CCN(Cc2nc3ccccc3[nH]2)CC1)NCc1ccco1	i
N#Cc1cccc(NC(=O)CSC2=NNC3C4CC(c5ccc(F)cc5)NN4C=CN23)c1 (centres undefined)	i
CCCCC[C@@H](O)/C=C/[C@@H]1[C@H](C/C=C\CCCC(=O)O)[C@@H](O)C[C@H]1O	i
CCOc1cc(-c2ccc(C)cc2)nc2ccc(C(=O)N3CCN(C(=O)c4ccco4)CC3)cc12	i
COc1cc2c(Nc3ccc(NC(=O)c4ccccc4)cc3)ncnc2cc1OCCCN1CCOCC1	i
CC(O)(CC(=O)NCC(=O)O)CC(=O)OC1C(O)CC2(C)C3=C(CCC2C1(C)C)C1(C)CCC(C(CO)CCC(O)C(C)(C)O)C1(C)C(O)C3 (centres undefined)	i
CCCc1nnsc1C(=O)N1CCN(CC(O)c2ccco2)CC1 (centres undefined)	i
Cc1ccc(OCC(O)CNC(C)c2ccccc2)cc1 (centres undefined)	i
Cc1noc(C)c1CCn1cccc(-c2nc(-c3ccccc3Cl)no2)c1=O	i
CN(CC(=O)N1CCN(c2ccc(C(F)(F)F)cn2)CC1)C(=O)c1ccc(=O)[nH]c1	i
Cc1c(C(=O)NCC#CCOc2ccc3c(c2)OCO3)cnn1-c1ccccc1	i
COc1ccc(C(=O)NCC(c2cccn2C)N2CCN(C)CC2)cc1OC (centres undefined)	i
COc1cc(NC(=O)C2CCN(c3c(C#N)cnc4ccc(OC)cc34)CC2)cc(OC)c1	i
CS(=O)(=O)N1CCN(CCNC(=O)NCCc2ccccc2)CC1	i
O=C(c1ccc(C(F)(F)F)cc1)N1CCC(CSCc2ccco2)CC1	i
C=CC(=O)N1CCCN(C(=O)C=C)CC1	i
COCCN1C(=O)c2oc3cc(C)c(Cl)cc3c(=O)c2C1c1cccc([N+](=O)[O-])c1 (centres undefined)	i
O=C(NCC12CC3CC(CC(Cl)(C3)C1)C2)c1cccs1	i

Next part; the last five above are carried over.
SMILES	GIRK2 act
CS(=O)(=O)N1CCN(CCNC(=O)NCCc2ccccc2)CC1	i
O=C(c1ccc(C(F)(F)F)cc1)N1CCC(CSCc2ccco2)CC1	i
C=CC(=O)N1CCCN(C(=O)C=C)CC1	i
COCCN1C(=O)c2oc3cc(C)c(Cl)cc3c(=O)c2C1c1cccc([N+](=O)[O-])c1 (centres undefined)	i
O=C(NCC12CC3CC(CC(Cl)(C3)C1)C2)c1cccs1	i
CCCCCCCCCCCCCCCC(=O)NCCO	i
CC(=O)Oc1ccc(C(=O)O)cc1OC(C)=O	i
O=C1Cc2cc(NC(=O)Nc3ccccc3C(F)(F)F)ccc2N1	i
O=C(NCCCc1ccccc1)N1CCOC(c2cc(Cl)cc(Cl)c2)C1 (centres undefined)	i
CCN(CC)CCN(C(=O)c1ccn(C)n1)c1nc2c(OC)ccc(Cl)c2s1	i
COc1ccc(-n2nnc(C(=O)NCC(N)=O)n2)cc1	i
COc1ccc(Cl)cc1NCCN1N=C(C)C(C)n2c1nc1c2c(=O)n(C)c(=O)n1C (centres undefined)	i
CCCS(=O)(=O)N1CCCc2ccc(NS(=O)(=O)c3cc(CC)ccc3OC)cc21	i
COc1ccc2cc(N(C)C(=O)C3=NOC4C(O)C=CC(O)C4(O)C3)c(=O)oc2c1OC (centres undefined)	i
N#C/C(=C\N1CCN(Cc2ccc3c(c2)OCO3)CC1)c1nc2ccccc2s1	i
Cc1ccc2c(NC(=O)c3c(F)cccc3Cl)cccc2n1	i
O=C(c1ccc(Cl)cc1)N1CCN(c2ncnc3c2nnn3-c2ccc(F)cc2)CC1	i
Cc1ccc(C)c(Cn2cc(C(=O)O)c(S(=O)(=O)N3CCCC3)n2)c1	i
CS(=O)(=O)N1CCCc2ccc(NS(=O)(=O)c3ccc4ccccc4c3)cc21	i
COc1ccc(-c2csc(NC(=O)C3CCN(S(=O)(=O)c4ccc(F)cc4)CC3)n2)cc1	i
COc1ccc(NC(=O)Cc2ccc(-c3ccccc3)cc2)cc1N1CCCC1=O	i
O=C(COc1ccc(Cl)cc1)N1CCC(Oc2ccc(C(F)(F)F)cn2)CC1	i
COC(=O)c1ccc(NC(=O)Cn2c(-c3cccnc3)nc3ccccc32)cc1	i
Cc1cc(-n2cc(C(=O)N3CCC(NC(=O)Cc4cccs4)CC3)nn2)ccc1F	i
CCc1nc(-c2ccc(-n3ccc(C(=O)N4CCC(C(N)=O)CC4)n3)cc2)no1	i
CCOc1ccc2ncc(S(=O)(=O)c3ccc(Cl)cc3)c(N3CCC(C(N)=O)CC3)c2c1	i
Cc1cc(C)cc(-n2nnc3c(=O)n(CC(=O)N4CCC(Cc5ccccc5)CC4)cnc32)c1	i

Reprinted at random: 3 compounds from above
SMILES	GIRK2 act
COc1ccc(NC(=O)Cc2ccc(-c3ccccc3)cc2)cc1N1CCCC1=O	i
O=C(COc1ccc(Cl)cc1)N1CCC(Oc2ccc(C(F)(F)F)cn2)CC1	i
COC(=O)c1ccc(NC(=O)Cn2c(-c3cccnc3)nc3ccccc32)cc1	i
